# Compound activity deposited in PubChem by National Center for Advancing Translational Sciences (NCATS).
# Cruzain Triton: qHTS Assay for Promiscuous and Specific Inhibitors of Cruzain (with detergent); purified cruzain, Z-FR-AMC fluorescence, 0.01% Triton; Potency, µM, without a hit: max response, negative = inhibition, actives largely listed as inhibitors; hit rate 0.43% among 200,000; Cruzipain (Trypanosoma cruzi), P25779; active = well fitted curve in the direction sought with a large enough effect; inconclusive = small, poorly fitted or top-dose-only effect, or another doubt; inactive = no such curve, though single readings can be large; an effect the other way counts as inactive or inconclusive;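 also: plate controls were neutral wells for no effect and buffer without enzyme for full effect; nearly all actives have a fitted effect of over 40% in size; top concentration of the series not given in the record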
# Target sequence (P25779 123-467 limits assumed): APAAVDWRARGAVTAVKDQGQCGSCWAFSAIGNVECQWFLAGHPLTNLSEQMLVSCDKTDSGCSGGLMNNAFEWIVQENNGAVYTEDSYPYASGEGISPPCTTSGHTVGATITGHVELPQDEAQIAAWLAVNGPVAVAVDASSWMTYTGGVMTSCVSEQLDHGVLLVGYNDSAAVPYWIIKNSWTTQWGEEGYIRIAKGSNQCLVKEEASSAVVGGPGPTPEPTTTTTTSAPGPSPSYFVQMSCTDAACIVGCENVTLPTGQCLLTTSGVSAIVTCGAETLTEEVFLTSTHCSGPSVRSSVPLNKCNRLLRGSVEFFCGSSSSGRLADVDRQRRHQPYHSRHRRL
#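 Compounds were screened in titration against cruzain (1.5 nM) with 0.01% Triton X-100 to counter colloidal aggregation. Activity was the AMC fluorescence increase over 60 s after adding 2 uM Z-FR-AMC at pH 5.5.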
# SARS PLpro yeast: qHTS of Yeast-based Assay for SARS-CoV PLP; Potency, µM (doses to about 32.9 µM), for inactives: at the highest dose activity, positive = growth rescue; hit rate 0.19% among 330,000; AID 485353, 2010; S. cerevisiae expressing SARS-CoV PLpro, growth rescue; control for the full effect not named in the record; also: 0% is about no effect; nearly all actives have a fitted effect of over 55% in size; growth read by luminescence after 48 h
# Cruzain inh noDet: qHTS Assay for Promiscuous and Specific Inhibitors of Cruzain (without detergent) | Potency, µM, for the others: max response, negative = inhibition, most hits filed as inhibitors | AID 1476, 2009 | purified cruzain, Z-FR-AMC fluorescence, no detergent | hit rate 2.3% among 200,000 | Cruzipain (Trypanosoma cruzi), P25779; active = well fitted curve in the direction sought with a large enough effect; inconclusive = small, poorly fitted or top-dose-only effect, or another doubt; inactive = no such curve, though single readings can be large; an effect the other way counts as inactive or inconclusive;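 also: plate controls were enzyme without inhibitor for no effect and buffer without enzyme for full effect; nearly all actives have a fitted effect of over 40% in size; top concentration of the series not given in the record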
#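 Purified cruzain at 1.5 nM, pre-incubated 15 min with compound at room temperature in 100 mM sodium acetate pH 5.5, 5 mM DTT, 0.00005% Triton X-100. Reaction started with 2 uM Z-FR-AMC; AMC fluorescence increase over 60 s gives rate.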
# RE007 growth inh: qHTS Assay for Inhibitors of the HIV-1 protein Vpr | Potency, µM (highest dose often 92.2 µM), for the others: top-dose activity change, negative = less growth | AID 651644, 2012 | hit rate 0.21% among 360,000 | S. pombe RE007 Vpr strain, BacTiter-Glo ATP luminescence, 24 h; control for the full effect not named in the record; active = well fitted falling curve with a large enough effect; inconclusive = small, poorly fitted or top-dose-only effect; inactive = no such curve, though single readings can be large or run the other way;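 also: % is scaled to controls: 0 for no effect and ±100 for the full control effect; nearly all actives have a fitted effect of over 50% in size; the assay follows cell death caused by Vpr and the record does not say whether a fall means rescue or toxicity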
#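 Fission yeast RE007 carrying one integrated HIV-1 vpr copy, seeded at OD 0.01 in PMG+AL medium with 23 nL pinned compound. Grown 24 h at 30 degrees; viability read by BacTiter-Glo luminescence after 5 min.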
# MARV entry inh: qHTS for inhibitors of binding or entry into cells for Marburg Virus; hit rate 1.8% among 300,000; Potency, µM (series often up to 37.8 µM), for inactives: at the highest dose activity change, negative = inhibition, hits mostly inhibitors; Marburg virus pseudotyped entry inhibition, cell reporter; control for the full effect not named in the record; about a third of the inactives were read at about 46 µM; AID 540276, 2011; active = well fitted inhibition curve with a large enough effect; inconclusive = small, poorly fitted or top-dose-only effect, or effect the other way; inactive = flat fitted curve, though single readings scatter; tested in HEK293 cells; about a fifth of its hits are not listed in these tables; also: % is scaled to controls: 0 for no effect and ±100 for the full control effect; luciferase read-out
# StopGo reporter: High Throughput Screening for Foot and Mouth Disease Virus Antivirals | human cells with a luciferase reporter of 2A StopGo recoding; control for the full effect not named in the record | Potency, µM (series often up to 57.9 µM), for inactives: at the top dose signal change, negative = less light | hit rate 1.2% among 410,000 | AID 1159524, 2015; active = well fitted falling curve with a large enough effect; inconclusive = small, poorly fitted or top-dose-only effect; inactive = no such curve, though single readings can be large or run the other way; tested in HEK293T cells; also: % is scaled to controls: 0 for no effect and ±100 for the full control effect; nearly all actives have a fitted effect of over 45% in size; luciferase light after 4 h
# LASV entry inh: qHTS for Inhibitors of binding or entry into cells for Lassa Virus; Lassa virus pseudotype entry inhibition, cell reporter; control for the full effect not named in the record; Potency, µM (titrated, usually from 37.9 µM), for inactives: at the highest dose activity change, negative = inhibition, hits mostly inhibitors; hit rate 1.2% among 300,000; active means well fitted inhibition curve with a large enough effect; inconclusive means small, poorly fitted or top-dose-only effect, or effect the other way; inactive means flat fitted curve, though single readings scatter; tested in HEK293 cells; also: % is scaled to controls: 0 for no effect and ±100 for the full control effect; nearly all actives have a fitted effect of over 50% in size; luciferase read-out
# NS1 function inh: qHTS Assay for Inhibitors of Influenza NS1 Protein Function. hit rate 0.4% among 270,000. S. cerevisiae slowed by influenza A NS1, growth recovery by OD600. Potency, µM (titrated, usually from 46.1 µM), for the others: at the top dose activity, positive = more growth; also: actives are rising curves; nearly all actives have a fitted effect of over 50% in size
#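 In this qHTS, NS1 from influenza A is expressed in budding yeast, where it slows growth. Cells are switched from glucose to 2% galactose medium (pH 6.0, -URA), treated with compound, and growth recovery is read at OD600.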
# Active calls of the source: *; ? = inconclusive; nt = not tested or not shown; & = joins results of further samples; [ ] = remark or other dose. Unless noted, calls follow the shape of the dose curve; as a rule, active means well fitted rising curve with a large enough effect; inconclusive means small, poorly fitted or top-dose-only effect; inactive means no such curve, though single readings can be large or run the other way. Potency is read from the fitted curve at half-maximal effect.
SMILES,Cruzain Triton,SARS PLpro yeast,Cruzain inh noDet,RE007 growth inh,MARV entry inh,StopGo reporter,LASV entry inh,NS1 function inh
COc1ccc(CN2C(=O)c3cccnc3C2=O)cc1S(=O)(=O)N1CCCCC1C (stereo not given),nt,1%,nt,9%,nt,8%,nt,2%
O=C(CN(Cc1ccco1)C(=O)CNS(=O)(=O)c1ccccc1)NCc1ccccc1,2.4%,6%,2%,6%,0%,-16%,-24%,-2%
Cc1c(NC(=S)NC(=O)c2cccc3ccccc23)cccc1C(=O)O,nt,5%,nt,12%,?,-18%,11%,-10%
O=C(NCc1ccc2c(c1)OCO2)c1nc(Cn2cc([N+](=O)[O-])cn2)no1,nt,1%,nt,-10%,34%[46.1 µM],3%,nt,-10%
COc1cccc2oc3ccc(C#Cc4ccccn4)cc3c(=O)c12,nt,-17%,nt,-27%,nt,-4%,nt,-28%
Cc1ccc(-n2nc3c(=O)n(CCCC(=O)NCc4cccc(Cl)c4)nc(C)c3c2C)cc1,nt,-2%,nt,-21%,nt,?,nt,-1%
COc1ccccc1-n1c(SCC(=O)NC(C)(C)C)nc(O)cc1=O,1.2%,5%,1%,3%,15%,15%,-4%,8.9µM*
Cc1ccccc1-c1nc(CS(=O)(=O)CC(=O)NCCCN2CCOCC2)c(C)o1,nt,-3%,nt,-7%,-1%[46.1 µM],-15%,7%[46.1 µM],3%
CCc1nn2c(=O)cc(COC(=O)c3ccccc3NC(=O)COc3ccc(F)cc3)nc2s1,1.2%,nt,15%,nt,nt,4%,11%[46.1 µM],nt
O=C(NCCNc1ccc(Cl)cc1[N+](=O)[O-])c1cccnc1,nt,5%,nt,6%,-21%[46.1 µM],?,?,2%
CCOC(=O)c1nnc2cc(-c3ccccc3)nn2c1C,-3.6%,-5%,3%,?,?,-8%,-22%,-59%
COc1ccccc1N1CCN(S(=O)(=O)c2cc(C)sc2C)CC1,-2.5%,-14%,6%,-13%,nt,-24%,nt,-7%
CC(C)c1ccc(N(CC(=O)NC2CCCC2)C(=O)CCC(=O)Nc2nccs2)cc1,nt,5%,nt,4%,?,0%,-10%[46.1 µM],17%
CCOC(=O)N1CCN(S(=O)(=O)c2cc(Br)cc3c2N(C(C)=O)C(C)C3)CC1 (stereo not given),-1.2%,2%,?,4%,-11%&-11%[46.1 µM],0%,?,-50%
COc1ccc(NC(=O)N2C[C@@H]3C[C@@H](C2)c2cccc(=O)n2C3)cc1,nt,6%,nt,14%,nt,-6%,nt,-8%

# An excerpt from above in order of molar mass, low to high.
SMILES,Cruzain Triton,SARS PLpro yeast,Cruzain inh noDet,RE007 growth inh,MARV entry inh,StopGo reporter,LASV entry inh,NS1 function inh
CCOC(=O)c1nnc2cc(-c3ccccc3)nn2c1C,-3.6%,-5%,3%,?,?,-8%,-22%,-59%
COc1ccc(CN2C(=O)c3cccnc3C2=O)cc1S(=O)(=O)N1CCCCC1C (stereo not given),nt,1%,nt,9%,nt,8%,nt,2%
CCOC(=O)N1CCN(S(=O)(=O)c2cc(Br)cc3c2N(C(C)=O)C(C)C3)CC1 (stereo not given),-1.2%,2%,?,4%,-11%&-11%[46.1 µM],0%,?,-50%

# Later entries
SMILES,Cruzain Triton,SARS PLpro yeast,Cruzain inh noDet,RE007 growth inh,MARV entry inh,StopGo reporter,LASV entry inh,NS1 function inh
Cc1nc2cccnc2n1C1CCN(S(=O)(=O)N(C)C)CC1,0.7%,nt,9%,nt,nt,-10%,1%[46.1 µM],nt
COc1nc(N(c2ccccc2)c2ccccc2)nc(-n2ccnc2)n1,-0.1%,-31%,-9%,20%,?,?,?,-88%
C=CCn1c(SCC2=C(C(=O)OCC)C(C)NC(=O)N2)nnc1C1CCCCC1 (stereo not given),1.7%,6%,-3%,13%,11%&11%,-27%,1%,11µM*
COc1cccc(N2CCN(CC(=O)N3CCN(S(=O)(=O)c4ccc(Cl)cc4)CC3)CC2)c1,nt,0%,nt,1%,?,-25%,-17%,nt
COC(=O)c1ccc(C(=O)OC)c(NC(=S)N2CCN(C)CC2)c1,nt,0%,nt,12%,?,11%,28%[46.1 µM],3%
Cc1ccc(S(=O)(=O)N2c3ccccc3OCC2c2ccccc2)cc1 (stereo not given),-4.5%,-9%,?,6%,?,?,-23%,12%
Cn1cc(Cl)cc(C(=O)Nc2ccccc2)c1=O,nt,-4%,nt,-14%,nt,51%[activator],nt,4%
CC(=O)Nc1cccc(OCC(=O)NCCC2=CCCCC2)c1,nt,-4%,nt,-2%,?,59%[activator],?,5%
N#Cc1c(N)n[nH]c1-c1cc2c([nH]1)CCCC2,-5.3%,20%,-2%,-3%,12%,14%,-6%,11%
Cc1nc(C)c(NC(=O)OC(C)C)cc1NC(=O)OC(C)C,nt,1%,nt,-13%,-18%[46.1 µM],-11%,1%[46.1 µM],nt
COc1cc(CC(=O)OCC(=O)N2CCCCC2C)cc(OC)c1OC (stereo not given),nt,-1%,nt,11%,6%[46.1 µM],3%,nt,-4%
O=C(Nc1nc2ccc([N+](=O)[O-])cc2s1)c1ccncc1,nt,1%,nt,1%,?,3%,27%[46.1 µM],7%
CCCCNCc1ccc(SC)cc1,7.1%,6%,10%,-9%,-6%,3%,9%,-2%
Cc1ccc(NC(=O)N/C=C/c2ccco2)cc1C,-11%,4%,-1%,-9%,4%,6%,-1%,7%
COc1cc2c(cc1OC)C(C)N(S(=O)(=O)c1cn(C)cn1)CC2 (stereo not given),nt,0%,nt,12%,14%[46.1 µM],-7%,14%[46.1 µM],0%

# Gathered by group, the compounds so far containing an aryl thioether with sulfur outside any ring (three)
SMILES,Cruzain Triton,SARS PLpro yeast,Cruzain inh noDet,RE007 growth inh,MARV entry inh,StopGo reporter,LASV entry inh,NS1 function inh
COc1ccccc1-n1c(SCC(=O)NC(C)(C)C)nc(O)cc1=O,1.2%,5%,1%,3%,15%,15%,-4%,8.9µM*
C=CCn1c(SCC2=C(C(=O)OCC)C(C)NC(=O)N2)nnc1C1CCCCC1 (stereo not given),1.7%,6%,-3%,13%,11%&11%,-27%,1%,11µM*
CCCCNCc1ccc(SC)cc1,7.1%,6%,10%,-9%,-6%,3%,9%,-2%

# The list goes on:
SMILES,Cruzain Triton,SARS PLpro yeast,Cruzain inh noDet,RE007 growth inh,MARV entry inh,StopGo reporter,LASV entry inh,NS1 function inh
O=C(CSc1nc2ccccc2c(=O)n1CCCO)Nc1ccc2c(c1)OCCO2,nt,-4%,nt,6%,-4%,-11%,-3%,nt
O=S(=O)(N/N=C/c1cccc(OC2CSC2)c1)c1ccccc1,-9.3%,0%,-20%,-12%,3%,25%,-2%,25%
CCN(CC)C(=O)CC(c1ccc(OC)cc1)c1c(OC)cc(OC)c2ccc(=O)oc12 (stereo not given),nt,1%,nt,-2%,nt,-16%,nt,-4%
COc1ccc(CN2C(=O)c3cccnc3C2=O)cc1S(=O)(=O)N1CCOc2ccccc21,nt,0%,nt,3%,nt,4%,nt,-10%
CCN(CC(=O)NCc1ccccn1)S(=O)(=O)c1ccc(OC)cc1,nt,2%,nt,-22%,5%[46.1 µM],0%,-18%[46.1 µM],2%
COc1ccc(Cl)cc1C(=O)C1CCCN(Cc2cnc(N3CCOCC3)s2)C1 (stereo not given),nt,0%,nt,-7%,?,?,-17%,-2%
CC(=O)Nc1ccc(OC(=O)Cc2ccc(Cl)cc2)cc1,nt,-4%,nt,-17%,-10%[46.1 µM],-14%,7%[46.1 µM],6%
Cc1oc(-c2cccs2)nc1CN1CC[C@@](O)(c2ccccc2)[C@H]2CCCC[C@@H]21,nt,0%,nt,4%,?,-10%,-11%[46.1 µM],-1%
CC1CC(Nc2ccccc2)=CC(=O)O1 (stereo not given),7.2%,5%,-8%,4%,-18%,0%,19%,-9%
c1ccc(-c2nc3c(ccc4ccccc43)[nH]2)nc1,-8.3%,-56%,-12%,?,?,-23%,?,-15%
O=C(NCC(O)c1ccccc1)c1ccccc1 (stereo not given),nt,0%,nt,12%,?,19%,-18%,5%
O=C(CSc1nc2nccnc2c(=O)n1Cc1cccs1)Nc1ccccc1,nt,1%,nt,4%,6%[46.1 µM],-13%,-11%[46.1 µM],4%
O=C(NC1CCCCC1)C(c1ccccc1F)N(Cc1ccco1)C(=O)c1ccccn1 (stereo not given),nt,-1%,nt,2%,-1%[46.1 µM],33%[activator],-11%,20%
O=C(CCCc1ccccc1)NCc1ccc2c(c1)OCO2,nt,-7%,nt,6%,3%,32%[activator],-2%,-4%
CSCCC(NC(=O)COc1ccccc1)C(=O)NCCOc1ccc(C)cc1 (stereo not given),nt,-2%,nt,6%,-20%,6%,?,-13%
O=C(COC(=O)[C@@H]1CCCN1S(=O)(=O)c1ccccc1F)Nc1ccc(OC(F)F)cc1,nt,-5%,nt,-2%,1%[46.1 µM],4%,23%[46.1 µM],nt
CCOC(=O)c1cc(-c2ccccc2)sc1NC(=O)COC,nt,-1%,nt,51%,3%[46.1 µM],-5%,11%[46.1 µM],-3%

# Results in StopGo reporter, MARV entry inh and SARS PLpro yeast (two entries from above):
Molecule	StopGo reporter	MARV entry inh	SARS PLpro yeast
Cc1ccccc1-c1nc(CS(=O)(=O)CC(=O)NCCCN2CCOCC2)c(C)o1	-15%	-1%[46.1 µM]	-3%
COc1cc2c(cc1OC)C(C)N(S(=O)(=O)c1cn(C)cn1)CC2 (stereo not given)	-7%	14%[46.1 µM]	0%
